# Bioassay records: PubChem BioAssay, Johns Hopkins Ion Channel Center
# KCNQ2 pot = enhances the rat KCNQ2 potassium channel; O88943; CHO-K1 KCNQ2, FluxOR thallium flux fluorescence; active compounds read high; B-score at 10 µM; actives 0.54% (n = 310,000); AID 2239;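 active = fluorescence ratio B-score at least 3 SD of library B-scores, with initial fluorescence B-score within 3 SD, cut at about 5.3 in these data; same plate scores as AID 2156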;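 note: B-score of peak minus minimum over baseline fluorescence ratio after K+ and Tl+ stimulus; positive B-score means potentiation of KCNQ2 with more thallium influx and brighter signal; only the inactives scoring about 0 or higher are listed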
# Target sequence (O88943 whole entry, looked up): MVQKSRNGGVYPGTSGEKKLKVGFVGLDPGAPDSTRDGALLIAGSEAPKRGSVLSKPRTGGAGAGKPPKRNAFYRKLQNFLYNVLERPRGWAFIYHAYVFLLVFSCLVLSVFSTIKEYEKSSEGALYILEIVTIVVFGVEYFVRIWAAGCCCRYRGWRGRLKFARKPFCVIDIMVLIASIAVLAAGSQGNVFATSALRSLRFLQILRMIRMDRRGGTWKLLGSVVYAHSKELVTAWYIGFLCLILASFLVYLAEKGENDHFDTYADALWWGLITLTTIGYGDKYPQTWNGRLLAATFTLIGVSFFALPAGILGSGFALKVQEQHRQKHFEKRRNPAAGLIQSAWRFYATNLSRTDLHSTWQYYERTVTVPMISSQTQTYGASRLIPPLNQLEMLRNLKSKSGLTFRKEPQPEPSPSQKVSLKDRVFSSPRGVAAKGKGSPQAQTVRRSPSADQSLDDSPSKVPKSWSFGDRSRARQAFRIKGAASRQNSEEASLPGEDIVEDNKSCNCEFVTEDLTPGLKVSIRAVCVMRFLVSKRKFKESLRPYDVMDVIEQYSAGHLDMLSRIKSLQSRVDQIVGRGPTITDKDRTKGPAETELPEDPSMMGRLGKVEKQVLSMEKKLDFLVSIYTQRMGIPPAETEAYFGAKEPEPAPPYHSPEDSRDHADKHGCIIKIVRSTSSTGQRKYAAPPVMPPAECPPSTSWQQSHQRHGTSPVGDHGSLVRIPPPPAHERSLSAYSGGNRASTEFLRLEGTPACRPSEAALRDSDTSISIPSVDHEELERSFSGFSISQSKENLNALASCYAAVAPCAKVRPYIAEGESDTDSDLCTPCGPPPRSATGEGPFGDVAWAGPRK
# KCNQ2 pot baseline = also measured in KCNQ2 pot; calls as there; B-score; compound at 10 µM; measured here: initial fluorescence intensity artifact check;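 brightness before thallium and not channel activity; 0 = typical well and far values either way flag optical interference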
# Starred values were filed as active, the others as inactive. Not all compounds are listed; the hit share may differ from the screen's.
SMILES,KCNQ2 pot,KCNQ2 pot baseline
CC(C)[C@H](NC(=O)C1CCN(S(=O)(=O)c2ccc(F)cc2)CC1)C(=O)NCc1ccco1,2.03,0.91
CCOC(=O)C1CCN(Cc2ccc3ccccc3c2)CC1,0.79,2.42
CCc1ccccc1NC(=O)c1ccc2c(c1)CCN2S(C)(=O)=O,0.91,0.77
COc1cccc(N=Nc2c(N)[nH][nH]c2=O)c1,0.09,0.45
COc1ccc(CCNC(=O)Nc2ccc3c(c2)OCO3)cc1OC,1.67,-2.07
O=C(NC1CCCC1)C1CC1c1ccccc1 (stereo not given),0.39,-0.64
COc1ccc(-n2c(-c3ccccc3)c[n+]3c2CCC3)cc1,0.35,0.4
OC(COc1ccc(Cl)cc1)CN1C2=NCCCN2c2ccccc21 (stereo not given),0.08,-0.27
CCOc1cc(NC(=O)C2CC2)c(OCC)cc1NC(=O)c1cccc(F)c1,0.08,-2.09
Cn1ccsc1=NC(=O)c1ccc(Cl)c([N+](=O)[O-])c1,0.68,0.29
Cc1cccc(N2CCCC2=Nc2ccc(Br)cc2C#N)c1,0.9,-2.14
CC1(C)CC(=O)c2c(nn(-c3ccccc3)c2-c2ccncc2)C1,0.66,1.23
Fc1cccc(-n2cc(-c3ccccc3)c3c(=S)nc[nH]c32)c1,2.83,1.61
C=C1CCN([C@@H](C)C(=O)NCc2ccc(OC)cc2)S(=O)(=O)c2ccccc21,0.86,0.68
Cc1ccc2c(c1)C(=O)N(CCCCO)C2=O,0.07,-0.17
O=S(=O)(NC1CCCCC1N1CCC(O)CC1)c1ccccc1 (stereo not given),0.29,-1.12
O=C(/C=C/c1ccc(Cl)c(Cl)c1)N1CCc2ccccc21,1.11,0
COc1ccc(NC(=O)c2ccc3c(c2)N(C)CCS3)cc1,0.04,-1.46
COC(=O)c1sccc1N/N=C/c1cccc(OC)c1O,0.26,0.9
COc1ccc(NC(=O)C(CCSC)N2C(=O)c3ccccc3C2=O)cc1 (stereo not given),0.65,-0.11
CC1(c2nnc(Cc3ccccc3)o2)CC(c2ccncc2)=NO1 (stereo not given),1.63,-0.22
c1ccc(-c2ccc(C3=Nn4c(nnc4-c4cccs4)SC3)cc2)cc1,0.54,0.34
CCOc1cc2sc(N3CCC(C(=O)NCCCN4CCCC4=O)CC3)nc2cc1Br,0.2,-1.43
O=c1cc(-c2ccc(F)cc2F)[nH]c2ccccc12,1.09,0.72
COc1ccccc1NC(=O)NS(=O)(=O)c1ccc(C)cc1,0.44,0.53
# Further results
SMILES,KCNQ2 pot,KCNQ2 pot baseline
O=C(NCCCNC(=O)c1ccccc1F)c1ccco1,1.2,1.1
Cc1ccc(S(=O)(=O)NC(=O)NN2CC3CCCC3C2)cc1 (stereo not given),0.53,-0.76
CC1CCN(C(=O)CS(=O)(=O)Cc2ccccc2)CC1,0.03,2.56
CCOc1ccc(NC(=O)CCCCn2c(=O)[nH]c3ccsc3c2=O)cc1,5.12,-0.38
C/C(N)=C(/C#N)C(=O)COC(=O)CNS(=O)(=O)c1c(F)cccc1F,1.05,0.95
O=C(NCC1(N2CCOCC2)CCCCC1)c1cccc(S(=O)(=O)N2CCc3ccccc3C2)c1,0.98,0.06
O=C(C1CCN(S(=O)(=O)c2ccc(Cl)cc2)CC1)N1CCCCCCC1,2.27,0.05
COc1ccc(-n2c(CCC(=O)O)ccc2-c2ccc(F)cc2)c(OC)c1,0.88,1.59
Cn1c(SCC(=O)NNC(=O)Nc2ccc(Cl)cc2)nnc1-c1ccccc1,0.42,1.04
O=C(Nc1ccc(F)cc1)C1CC(=O)n2c(nc3ccccc32)N1 (stereo not given),0.63,-1.78
COc1cccc(C2CC(c3cccs3)=NN2C(=O)c2ccco2)c1O (stereo not given),0.39,-0.24
S=c1[nH]ccn1-c1ccccc1Cl,0.23,0.48
COC(=O)c1cc(S(=O)(=O)NCC2CCN(Cc3ccc(C)cc3)CC2)c[nH]1,1.17,0.72
Cc1ccc(S(=O)(=O)N2CCCOC2CNC(=O)C(=O)NCc2ccncc2)cc1 (stereo not given),0.7,0.01
COc1cc(CNc2ccc3[nH]c(=O)[nH]c3c2)ccc1OCc1ccc(F)cc1Cl,1.2,0.39
Fc1ccccc1OCCCN1CCOCC1,0.97,-0.22
CCOC(=O)c1c(NC(=O)C2C3C=CC(C3)C2C(=O)O)sc2c1CC(C)(C)OC2 (stereo not given),1.19,-0.09
COC(=O)Cn1cnc2c(C#N)c3n(c2c1=O)CCCCC3,0.36,0.6
O=C(OC1CCCCC1=O)c1cccc(S(=O)(=O)N2CCOCC2)c1 (stereo not given),1.19,0.98
C=CCn1c(COc2ccccc2OC)nc2ccccc21,0.01,-1.07
CCn1c(COc2ccccc2)nnc1SCC(=O)NC1CCCCC1,0.28,-0.3
CC1CCN(c2c(NCc3ccc(C(=O)NCc4ccccc4)cc3)c(=O)c2=O)CC1,0.52,0.93
O=C(COC(=O)/C=C/c1nc2ccccc2s1)Nc1cccc(Cl)c1Cl,0.13,0.53
CNC(=O)c1ccsc1NC(=O)CCS(=O)(=O)c1ccccc1,0.45,-0.1
COC(=O)c1ccc(OC(=O)c2ccc(OC)c(OC)c2)c(OC)c1,0.12,0.86
# (further entries)
SMILES,KCNQ2 pot,KCNQ2 pot baseline
CCOC(=O)c1sc(NC(=O)CSc2nccc(C)n2)nc1C,0.61,-0.24
O=C(Nc1ccc2c(c1)OCO2)C1CCN(C(=O)CSc2ncnc3ccccc23)CC1,0.18,0.33
c1ccc2oc(CCc3nc4ccccc4o3)nc2c1,0.7,-0.59
Cc1ccc(NC(=O)C(CC(C)C)NC(N)=O)cc1Cl (stereo not given),0.71,0.49
CCCSc1nsc(NC(=O)Nc2ccc(F)cc2F)n1,0.23,-1.47
COc1ccccc1C(=O)Nc1ccc(CN2CCCCC2)cc1,1.15,-1.34
C=CCN=c1scc(-c2ccccc2)n1/N=C/c1ccccn1,1.86,-0.71
CC(=O)c1cccc(Nc2nc(=O)c3cccnc3s2)c1,0.27,0.49
O=C(NC1=NCCS1)c1cccc(OC(F)F)c1,1.32,-0.7
COc1ccc2c3c([nH]c2c1)C(C)N(C(C)=O)CC3 (stereo not given),0.3,-0.95
O=C(O)c1cccnc1C(=O)c1ccccc1,0.59,2.88
O=C(O)CCN1CCOCC1,0.72,1
Cc1cc(C(=O)Nc2c[nH]c(=O)[nH]c2=O)ccc1[N+](=O)[O-],0.45,0.59
Cc1ccc(NC(=S)N(CCN(C)C)C(C)c2ccco2)c(C)c1 (stereo not given),1.85,0.56
CCN(CC)C(=O)CSc1nc(C)cc(C)c1C#N,0.6,0.5
C=CCOc1cccc(CNc2ccc3[nH]c(=O)[nH]c3c2)c1,1.13,1.1
CCOC(=O)c1cc(-c2ccccc2)sc1NC(=O)C(C)OC(=O)c1cccc(S(=O)(=O)N(C)C)c1 (stereo not given),0.45,-0.06
CS(=O)(=O)N(CC(=O)N1CCCC1)Cc1ccc(Cl)cc1,0.31,0.1
CCC1(C)Cc2ccccc2C(Nc2c(C)n(C)n(-c3ccccc3)c2=O)=N1 (stereo not given),1.02,-0.01
COc1cc2c(c(O)c1OC)-c1c(cc(OC)c(OC)c1O)[C@@H](OC(=O)c1ccccc1)[C@@](C)(O)[C@@H](C)[C@@H]2OC(C)=O,0.99,-1.08
COc1nnc(-c2ccc(C)c(S(=O)(=O)N(C)C)c2)c2ccccc12,0.66,-0.52
Cc1ccc(C(=O)/C=C/Nc2ccc(S(=O)(=O)Nc3onc(C)c3C)cc2)cc1,0.01,-0.08
Cc1cc(NC(=O)CCC(=O)N(CC(=O)NC2CCCC2)c2ccc(Cl)cc2)no1,1.87,1
Cc1cc(C)c2c(Cn3ccnc3)cc(=O)oc2c1,0.66,-1.32
N#Cc1ccsc1NC(=O)CSc1nnnn1-c1ccc(O)cc1,1.04,-0.01
# Next results:
SMILES,KCNQ2 pot,KCNQ2 pot baseline
CC1CCCN(C(=O)Cc2ccc(F)cc2)C1 (stereo not given),1.18,0.42
COc1c(OC)c(O)c2c(=O)cc(-c3c(O)cccc3O)oc2c1OC,0.01,-0.98
CC(C)CCNC(=O)CN(Cc1ccccc1)C(=O)CCC(=O)Nc1nccs1,1.44,0
CCOc1ccc(C(=O)NCc2ccco2)cc1OC,1.18,0.32
O=C(NNc1cc(C(F)(F)F)ccc1Cl)c1ccc(=O)[nH]c1,1.86,1.91
CC(O)CN1C(=O)C(CC(=O)Nc2ccc(Cl)cc2)SC1=Nc1ccccc1 (stereo not given),0.12,-0.37
Cc1cccc(C)c1NC(=O)CSc1nnc(CCCCCNC(=O)OC(C)(C)C)o1,1.42,0.74
Cc1ccccc1-c1ccc(Nc2ccc(C(=O)N3CCOCC3)cc2)nn1,1.62,1.07
CNC(=O)c1nc(C)c(C2(C)CC(c3ccccc3)=NO2)s1 (stereo not given),1.22,-1.23
COC(=O)Nc1sc(C(=O)N(C)C)c(C)c1C(=O)OC,1.69,-1.75
COc1cccc(NC(=O)COc2ccc(C(=O)N3CCN(C)CC3)cc2)c1,2.19,3.09
CC(C)CCn1cnc2c1c(=O)n(C)c(=O)n2C,0.75,0.41
O=C1ON=C(c2ccccc2)/C1=C/c1ccc(O)c(O)c1,6.82*,-0.19*
COc1ccccc1C(=O)Nc1cc2c(ccc3ccccc32)oc1=O,0.18,0.04
CC(=O)c1ccc(N(CC(=O)NCc2ccc3c(c2)OCO3)C(=O)c2csnn2)cc1,1.36,-0.03
O=C(CSc1nnc(-c2ccccn2)o1)Nc1ccccc1Cl,1.39,0
CCCCC(=O)Nc1ccc2c3c(cccc13)C(=O)N2CC,4.15,0.6
O=C(OCCN1CCOCC1)c1ccc(O)cc1,1.4,-0.71
Cc1onc(-c2ccccc2)c1C(=O)NNC(=S)NC(=O)/C=C/c1ccccc1,0.01,-0.56
CCO[C@@H]1OC(C(=O)N2CCN(Cc3ccccc3)CC2)=C[C@H](C2CC2)[C@H]1CCCO,1.52,0.79
CNC(=O)/C(C#N)=C/c1c(N2CCCCCC2)nc2c(C)cccn2c1=O,0.86,-0.06
N#CC1=C(N)S[C@H](C(=O)C23CC4CC(CC(C4)C2)C3)[C@H]1c1ccncc1,0.02,-0.22
C=CCNc1nc(NCCN2CCOCC2)nc(OC)n1,0.13,-1.42
COc1cc(NS(=O)(=O)c2ccc(Nc3nc(-c4ccccc4)cs3)cc2)nc(OC)n1,1.82,-0.19
Cn1cc(S(=O)(=O)NCc2ccc(F)cc2)c(=O)n(C)c1=O,0.98,-0.64

# Gathered by group: the entries above with two or more sulfur atoms.
SMILES,KCNQ2 pot,KCNQ2 pot baseline
c1ccc(-c2ccc(C3=Nn4c(nnc4-c4cccs4)SC3)cc2)cc1,0.54,0.34
CNC(=O)c1ccsc1NC(=O)CCS(=O)(=O)c1ccccc1,0.45,-0.1
CCOC(=O)c1sc(NC(=O)CSc2nccc(C)n2)nc1C,0.61,-0.24
CCCSc1nsc(NC(=O)Nc2ccc(F)cc2F)n1,0.23,-1.47
CCOC(=O)c1cc(-c2ccccc2)sc1NC(=O)C(C)OC(=O)c1cccc(S(=O)(=O)N(C)C)c1 (stereo not given),0.45,-0.06
N#Cc1ccsc1NC(=O)CSc1nnnn1-c1ccc(O)cc1,1.04,-0.01
COc1cc(NS(=O)(=O)c2ccc(Nc3nc(-c4ccccc4)cs3)cc2)nc(OC)n1,1.82,-0.19

# A second format for some results above:
# Values run as follows: KCNQ2 pot, KCNQ2 pot baseline
CC(C)CCNC(=O)CN(Cc1ccccc1)C(=O)CCC(=O)Nc1nccs1
    1.44, 0
COc1cccc(NC(=O)COc2ccc(C(=O)N3CCN(C)CC3)cc2)c1
    2.19, 3.09
N#CC1=C(N)S[C@H](C(=O)C23CC4CC(CC(C4)C2)C3)[C@H]1c1ccncc1
    0.02, -0.22

# Other entries follow:
SMILES,KCNQ2 pot,KCNQ2 pot baseline
C[C@@H](NC(=O)C(=O)c1c[nH]c2ccccc12)c1ccccc1,0.85,1.63
CCN(CC)c1ccc(C(=O)N/N=C(\C)c2ccc(O)cc2)cc1,0.7,1.23
O=C(C1CCC(=O)N(C2CCCCCC2)C1)N1CCN(c2ccccc2Cl)CC1 (stereo not given),2.09,1.08
O=C(CC1CCCC1)OCn1nnc2ccccc2c1=O,0.54,0.79
O=C(O)c1cc(N/N=C/c2ccc(-c3ccc(F)cc3)o2)ccc1Cl,1.68,-0.05
CCCCn1c(-c2sccc2C)n[nH]c1=S,0.13,0.79
CC(=O)Nc1ccc(S(=O)(=O)Nc2ccccc2C(=O)NCc2cccnc2)cc1,0.23,-1.15
COc1cccc(CNC(=O)C2CCN(S(=O)(=O)c3c(C)nn(C)c3C)CC2)c1,0.47,-0.41
CC1CCN(C(=O)COc2ncnc3ccccc23)CC1,0.45,0.34
CSc1nsc(SCC(=O)Nc2ccc(O)c(C(=O)O)c2)n1,0.13,0.97
Cc1ccc(O)c(NC(=O)CN(C)S(=O)(=O)c2ccc(Cl)cc2)c1,0.16,0.55
Cc1ccccc1NC(=O)Cc1nnc(SCC(=O)NC2CCCCC2)n1C,1.16,-1.24
Cc1ccc(C)c(S(=O)(=O)NCCCn2ccnc2)c1,1.97,0.9
Cc1ccc(NC(=O)c2ccc3c(c2)C(=O)N(c2cc(C)ccc2C)C3=O)nc1,1.19,-0.74
COc1cc(SC)ccc1C(=O)NCc1ccccc1,1.41,-0.94
Cc1ccc(S(=O)(=O)N(C)C)cc1NC(=O)COC(=O)/C=C/c1ccc2c(c1)OCO2,0.03,-1.95
COc1ccc(CNC(=O)c2cc(-n3cnnc3)ccc2Cl)cc1,0.06,-0.91
CC(C)(C)SCCNC(=O)c1ccc(NS(C)(=O)=O)cc1,1.04,-1.1
Cc1ccccc1C(=O)Oc1ccc2ccc(O)cc2c1,0.65,1.83
CCCCc1cc(=O)oc2cc(OC(C)C(=O)NCC3CCC(C(=O)O)CC3)c(Cl)cc12 (stereo not given),0.93,-0.12
CCNC(=O)NC(=O)C(C)OC(=O)c1cccnc1SC (stereo not given),2.07,2.17
Cc1ccccc1NCC(=O)N=Nc1c(O)[nH]c2ccc([N+](=O)[O-])cc12,1.1,0.37
